Compound activity from PubChem BioAssay.
UUG fidelity: alters start codon recognition fidelity in yeast | S. cerevisiae UUG-firefly luciferase reporter, luminescence/redox ratio | actives 0.13% (n = 350,000) | activity score, % at 18.7 µM | AID 602363;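 active means replicate mean at a twofold rise or more, about +100% in these data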;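 further: firefly luciferase made from a UUG start codon reports start codon fidelity; reporter light over untreated wells divided by growth signal over untreated wells; some hits fall short of that in this replicate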
PABP FP inh: PABP-poly(A) binding inhibition | P11940 | PABP-poly(A) RNA binding, fluorescence polarization | inhibition, % at 35 µM | actives 1% (n = 290,000) | AID 2014;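 active means 50% or more with normal probe brightness, or confirmed in later tests; about a fifth of its hits are not listed in these tables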;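 further: calls also rest on retests at 20 µM and on dose response follow-up; controls were probe without protein and protein plus probe with vehicle; some compounds called inactive have numbers as strong as hits; many hits fall short of the cut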
Target sequence (P11940 whole entry, looked up): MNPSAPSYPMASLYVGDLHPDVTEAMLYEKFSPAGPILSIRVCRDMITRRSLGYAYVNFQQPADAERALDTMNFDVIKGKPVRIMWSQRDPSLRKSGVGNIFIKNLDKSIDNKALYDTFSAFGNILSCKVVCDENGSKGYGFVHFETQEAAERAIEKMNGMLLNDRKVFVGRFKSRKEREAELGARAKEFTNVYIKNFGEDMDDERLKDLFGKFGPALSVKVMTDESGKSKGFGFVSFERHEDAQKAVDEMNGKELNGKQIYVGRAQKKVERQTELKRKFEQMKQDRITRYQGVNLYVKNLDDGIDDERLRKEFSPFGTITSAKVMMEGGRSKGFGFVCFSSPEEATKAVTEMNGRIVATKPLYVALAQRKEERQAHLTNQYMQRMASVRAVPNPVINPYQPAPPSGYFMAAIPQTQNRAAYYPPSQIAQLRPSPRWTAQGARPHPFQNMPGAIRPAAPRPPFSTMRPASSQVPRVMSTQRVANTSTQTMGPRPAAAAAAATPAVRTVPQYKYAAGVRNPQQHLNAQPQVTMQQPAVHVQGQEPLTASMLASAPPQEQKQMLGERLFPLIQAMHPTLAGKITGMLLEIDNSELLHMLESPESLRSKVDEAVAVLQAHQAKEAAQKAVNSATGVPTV
HIV Env fusion: HIV envelope-mediated fusion inhibition. HeLa-JRFL Env/CEM21 cell fusion, luciferase. inhibition, % at 12.3 µM. actives 1.1% (n = 360,000). AID 651610;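 active means mean replicate inhibition score of at least 50 and every replicate individually at or above 50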;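 further: 0% = plate neutral controls and 100% = maraviroc near 300 nM; one replicate is shown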
CSC inhib: cancer stem cell inhibition; inhibition, % at 7.5 µM; cancer stem cell-like cells viability, luminescence; actives 1.1% (n = 300,000);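 active means mean at 75% or more and at least half the replicates too; tested in HMLE shEcad cells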;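 further: 0% = median of negative and 100% = median of positive control wells; the first replicate is given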
Rce1 inhib: inhibitors of yeast Ras-converting enzyme | Q03530 | calls only | actives 0.27% (n = 290,000) | yeast membranes, quenched prenylated peptide cleavage fluorescence;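 active means fall in fluorescence gain of 50% or more versus controls, with final raw signal at or below 3038400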;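 further: plate controls were neutral control wells for no effect and wells lacking membranes for full effect; tested at 10 µM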
MT1-MMP act inh: blocks activation of human MT1-MMP | P50281 | HT1080 RFP-PRO-GFP cells, GFP/RFP ratio fluorescence, overnight; percent of plate control window, DMSO zero | GFP/RFP ratio change, % at 20 µM | actives 0.061% (n = 360,000) | AID 651647;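 active means GFP/RFP ratio change of at least 30% with cell ATP level not reduced by more than half and red fluorescence within 50% of control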; further: strong numbers were not always called active
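Assay system: HT1080 RFP-PRO-GFP cells | Dosing: 20 µM single dose, 1% DMSO | Incubation: Cells overnight before dosing, compound overnight, 37 °C, 5% CO2 | Evaluation: GFP/RFP fluorescence ratio | Control set: DMSO-only wells and HT1080 RFP-L50D-GFP cell wells as references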
eIF4H inh: inhibitors of RNA binding by human eIF4H | Q15056 | actives 0.94% (n = 290,000) | AID 2012 | eIF4H fluorescence polarization binding assay | inhibition, % at 35 µM;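 active means 50% or more with normal probe brightness, or confirmed in later tests; about a fifth of its hits are not listed in these tables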;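 further: calls also rest on retests at 20 µM and on dose response follow-up; 0% = protein and probe with vehicle and 100% = probe without protein; strong numbers were not always called active; many hits fall short of the cut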
eIF4H inh retest: also measured in eIF4H inh; calls as there; inhibition, %; compound at 20 µM; confirmation average;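 mean of two retest wells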
PABP FP inh retest: second read-out of PABP FP inh, no call of its own (marks repeat the call); inhibition, %; compound at 20 µM; confirmation repeats;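 mean of two retest wells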
MT1-MMP act inh RFP: second read-out of MT1-MMP act inh, no call of its own (marks repeat the call); RFP signal change, %; measured here: RFP expression control read;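 0 = vehicle wells; hits needed this value within 50% of zero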
Starred values were filed as active, the others as inactive; i = inactive; . = no result given.

SMILES | UUG fidelity | PABP FP inh | HIV Env fusion | CSC inhib | Rce1 inhib | MT1-MMP act inh | MT1-MMP act inh RFP | eIF4H inh | others
COC/C=C/C1=CC2=CC(=O)C(C)(OC(=O)c3cnc4ccccc4n3)C(=O)C2=CN1c1ccc(CO)cc1 (centres undefined) | . | 78* | . | -4 | i | . | . | 102*
O=C(Nc1ccc2ccccc2n1)c1ccccc1Cl | -36 | 4 | -139 | . | i | 0 | -4 | -9
CCOc1ccc(C(=O)OC(C)C(=O)N2CCN(Cc3ccccc3)CC2)cc1 (centres undefined) | -9 | . | 10 | -10 | . | 4 | 1 | .
CC(/C=C1\SC(=S)N(CC(=O)N2CCN(c3ccccc3)CC2)C1=O)=C\c1ccccc1 | . | 12 | -9 | 9 | i | 1 | -1 | -4
CN(CC(=O)Nc1ccncc1)S(=O)(=O)c1ccc(Cl)cc1 | -9 | 4 | 14 | 0 | i | 4 | 0 | 6
O=C(O)CN1C(=O)C2(OCCCO2)c2ccccc21 | . | -4 | -10 | -12 | i | -2 | -1 | -3
CCOC(=O)c1cnc(SCC(=O)c2ccccc2)nc1N | -33 | -2 | -123 | -13 | i | -3 | 2 | -5
CC1CCCN(Cc2c(O)ccc3c2O/C(=C\c2ccco2)C3=O)C1 (centres undefined) | . | 5.8* | 11 | 0 | i | -28 | 5 | 85* | eIF4H inh retest=62*;PABP FP inh retest=54*
CCCCN(Cc1cccs1)S(=O)(=O)c1csc(C(N)=O)c1 | 6 | -3 | 4 | -20 | i | 6 | 5 | 0
CCOc1cccc(/C(O)=C2/C(=O)C(=O)N(Cc3ccco3)C2c2ccncc2)c1 (centres undefined) | 2 | 4 | -37 | 7 | i | 0 | 6 | 0
COc1cc2c(Cc3ccccc3)cncc2cc1O | -1 | . | 26 | . | . | 0 | -24 | .
Cc1ccc(SC(C)C(=O)Nc2cccc(N(C)S(C)(=O)=O)c2)cc1 (centres undefined) | -4 | 8 | 0 | -7 | i | 3 | 2 | -2
CCc1ccc(OCCCC(=O)Nc2nnc(C3CCCO3)s2)cc1 (centres undefined) | -17 | 8 | 6 | . | i | -5 | -2 | 3
CN(c1ccccc1)S(=O)(=O)c1cccc(NC(=O)CSc2nnc(C3CC3)n2C)c1 | -6 | . | . | -19 | . | 6 | -1 | .
CN(C)N=C1c2cc(S(=O)(=O)N(C)C)ccc2-c2ccc(S(=O)(=O)N(C)C)cc21 | -14 | 10 | 1 | 26 | i | -4 | 0 | 2
COc1cc(NS(=O)(=O)c2ccc3[nH]c(=O)oc3c2)cc(OC)c1 | . | -8 | -19 | -3 | i | -1 | -4 | 1
N#Cc1ccccc1Sc1ccccc1C(=O)N1CCOCC1 | -10 | 0 | . | 12 | i | 1 | 5 | -4
CC1CCCCN1C(=O)C(=O)c1cn(CC(=O)N2CCCCCC2)c2ccccc12 (centres undefined) | 0 | 8 | 0 | -10 | i | -5 | 1 | 24
O=C(CN1C(=O)COc2ccccc21)NCC1CCCO1 (centres undefined) | -13 | 7 | -8 | 2 | i | -4 | 2 | 5
COC(=O)c1ccc(C(=O)OC)c(NC(=S)N2CCN(c3ccccc3F)CC2)c1 | -19 | -2 | . | -1 | i | -9 | -1 | 8
CC(C)n1c(O)c(N=Nc2ccc(Cl)c(C(=O)O)c2)c2ccccc21 | 1 | 10 | 4 | 13 | i | -3 | -1 | -7
COCCN(C(=O)COC(=O)c1cc2c(s1)CCC2)c1c(N)n(Cc2ccccc2)c(=O)[nH]c1=O | 0 | . | . | -14 | i | 1 | 5 | .
CSc1ncc(S(=O)(=O)c2ccccc2)c(=O)[nH]1 | . | -1 | -7 | -9 | i | -1 | 0 | 14
O=C1OCCN1C(=O)[C@H]1[C@H](c2ccc(Cl)cc2)C(c2cccc(Cl)c2)=NN1c1ccccc1 | -17 | 13 | . | 35 | i | -3 | 1 | -8
Cc1oc(-c2ccc3ccccc3c2)nc1CN(C)C(C)c1ccncn1 (centres undefined) | . | -8 | -199 | -12 | i | -1 | -3 | 0
CSc1nc2c(c(-c3ccc(O)cc3)c1C#N)CCC2 | -13 | 9 | . | -6 | i | -2 | -7 | 4
Cc1cc(C)nc(SCC(=O)OCN2C(=O)c3ccccc3C2=O)n1 | . | 1 | . | -7 | i | 0 | 2 | 7
OCC1(Cc2ccccc2)CCN(Cc2ccc(C(F)(F)F)cc2)CC1 | . | 2 | 6 | 32 | i | 3 | -4 | 0
Cc1ccc(-c2nc(NCCCN(C)C)c3ccccc3n2)cc1 | -11 | . | i | . | . | 1 | 1 | .
O=C(Cc1cc(=O)[nH]c(=O)[nH]1)NCC1CCCO1 (centres undefined) | 1 | 1 | 2 | 11 | i | -1 | 6 | 4
Cc1ccccc1NC(=S)NC(C)C(c1cccs1)N1CCOCC1 (centres undefined) | -3 | 2 | -19 | . | i | 1 | 5 | 4
O=C(NCCCn1ccnc1)c1noc2c1CCc1ccccc1-2 | -20 | -3 | 2 | 7 | i | 3 | 0 | 2
O=C(NCCc1ccccc1)c1cnc(Cl)c(Cl)c1 | -8 | 0 | -2 | -2 | i | -2 | 0 | 5
Cc1ccc(C(=O)COC(=O)C2CCC2)cc1 | -8 | -7 | . | . | i | 0 | 3 | 2
CCOC1=NN(c2ncc(C(F)(F)F)cc2Cl)C(=O)C1 | . | -1 | -11 | -3 | i | -3 | -1 | 9
COCCn1c(Sc2ccc(C)cc2)nc2c1c(=O)[nH]c(=O)n2C | 2 | -5 | -62 | . | i | 5 | 0 | 7
COc1ccc(S(=O)(=O)N2CCOCC2)cc1C(=O)NCc1ccccc1CN1CCCC1 | -8 | . | -5 | . | . | -2 | 1 | .
COc1cc(C(=O)OCC(=O)N(C)Cc2ccccc2)cc(OC)c1OC | 3 | -2 | . | -13 | i | 16 | -5 | 1
CC(C)n1nc(C(=O)Nc2cccc(S(=O)(=O)N3CCCCC3)c2)c2ccccc2c1=O | 1 | . | . | 12 | . | -4 | -5 | .
Cc1ccc(/C=N/NC(=O)CNC(=O)c2cccs2)cc1 | -2 | -9 | 26 | 1 | i | 1 | 3 | -3
O=C(O)C1CC=CCC1C(=O)N1CC=C(c2ccccc2)CC1 (centres undefined) | -14 | -5 | 11 | 1 | i | 0 | -2 | -3
COc1ccc(NC(=O)CCCCCN2C(=O)c3cccc([N+](=O)[O-])c3C2=O)c(OC)c1 | -16 | 1 | -4 | -10 | i | -1 | 0 | 7
N#Cc1ccccc1Cn1cc(/C=C/[N+](=O)[O-])c2ccccc21 | -14 | 5 | -358 | . | i | -2 | -6 | -2
CCNC(=O)CC1C(=O)N(c2ccc(C)cc2)C(=O)N1CCC(C)C (centres undefined) | -3 | 1 | 0 | -1 | i | 1 | 5 | 0
COc1ccc(C(=O)/C(=C\c2ccco2)N2C=CC=CC2=C(C#N)C#N)cc1 | -17 | 4 | . | 53 | i | -11 | 0 | 4
COc1cc(/C=N/NC(=O)c2cccc(S(=O)(=O)N3CCCC3)c2)ccc1O | -5 | . | 28 | 0 | i | 4 | 1 | .
O=C(Nc1ccc2c(c1)OCCO2)C1CCN(S(=O)(=O)c2ccccc2)CC1 | 7 | 4 | 11 | 5 | i | 2 | 0 | 6
CC1(C(=O)NS(=O)(=O)C2CC2)CCN(C(=O)c2cccc(OC(F)(F)F)c2)C1 (centres undefined) | -17 | . | 15 | . | . | 0 | 3 | .

The last 5 compounds of the section before lead into the next:
SMILES | UUG fidelity | PABP FP inh | HIV Env fusion | CSC inhib | Rce1 inhib | MT1-MMP act inh | MT1-MMP act inh RFP | eIF4H inh | others
CCNC(=O)CC1C(=O)N(c2ccc(C)cc2)C(=O)N1CCC(C)C (centres undefined) | -3 | 1 | 0 | -1 | i | 1 | 5 | 0
COc1ccc(C(=O)/C(=C\c2ccco2)N2C=CC=CC2=C(C#N)C#N)cc1 | -17 | 4 | . | 53 | i | -11 | 0 | 4
COc1cc(/C=N/NC(=O)c2cccc(S(=O)(=O)N3CCCC3)c2)ccc1O | -5 | . | 28 | 0 | i | 4 | 1 | .
O=C(Nc1ccc2c(c1)OCCO2)C1CCN(S(=O)(=O)c2ccccc2)CC1 | 7 | 4 | 11 | 5 | i | 2 | 0 | 6
CC1(C(=O)NS(=O)(=O)C2CC2)CCN(C(=O)c2cccc(OC(F)(F)F)c2)C1 (centres undefined) | -17 | . | 15 | . | . | 0 | 3 | .
O=C(COc1ccc([N+](=O)[O-])cc1)Nc1cccc(C(=O)Nc2ccccc2C(=O)O)c1 | -8 | 19 | -6 | -4 | i | 1 | 0 | 3
CCOC(=O)c1c(NC(=O)COC(=O)c2c(C)noc2C)sc2c1CCC2 | 6 | 1 | 13 | 4 | . | -3 | -2 | -7
CC/C=C\[C@H](O)[C@H](O)C1=C(C)C(=O)[C@]2(O1)C(=O)N[C@@](OC)(C(=O)c1ccccc1)C2O (some centres undefined) | -17 | 10 | . | 5 | i | -8 | -2 | 7
Cc1[nH]n(-c2ccccc2)c(=O)c1/C=N/NC(=O)c1cccc([N+](=O)[O-])c1 | -20 | 5 | . | 5 | . | 2 | 6 | 19
CC(C)CNC(=O)NC(=O)COC(=O)c1cc([N+](=O)[O-])ccc1NCc1ccccc1Cl | . | -3 | -1 | -8 | i | . | . | -7
C[C@@H]1CN(C2CCN(Cc3nc(C(c4ccccc4)c4ccccc4)no3)CC2)C[C@H](C)O1 | . | -19 | 14 | 39 | i | -2 | -3 | 5
NS(=O)(=O)c1ccc(CCn2c(=S)[nH]c3ccccc3c2=O)cc1 | -10 | 10 | 23 | 14 | i | -2 | -1 | -18
CCNC(=S)Nc1c(C)n(C)n(-c2ccccc2)c1=O | . | -3 | 5 | 7 | i | 1 | 2 | -6
CC1(C(=O)Nc2ccccc2)CCN1C(=O)C1(c2ccccc2)CC1 (centres undefined) | -20 | . | -8 | . | . | 3 | 2 | .
Cc1ccc(C(C)C)c(OCCNC(=O)c2ccccc2O)c1 | -14 | -4 | 22 | 66 | i | -6 | -15 | 3
CCOc1ccc(-c2c(C(=O)N/N=C/c3ccc(C)cc3)nnn2-c2nonc2N)cc1 | . | -1 | -6 | -4 | i | -2 | -3 | -3
CC(=O)NCCc1nc2cc(NC(=O)c3cccc([N+](=O)[O-])c3)ccc2n1C | -21 | 2 | . | -10 | i | 5 | -1 | 0
CCn1c(SCC(=O)N/N=C/c2cc(OC)c(O)c(OC)c2)nc2ccccc21 | -15 | 2 | 7 | -5 | i | -2 | 2 | 1
O=C(NCCc1cccc(F)c1)C1CCC(=O)N(C2CCCCCC2)C1 (centres undefined) | 4 | 7 | -6 | . | i | 2 | 1 | 4
CCOC(=O)Cc1csc(NC(=O)c2cccc([N+](=O)[O-])c2)n1 | -4 | 7 | -4 | -5 | i | 5 | -4 | 5
O=C(COc1ccccc1CNCc1ccccc1)Nc1ccccc1 | . | -1 | -156 | -2 | i | -5 | -2 | -8
CC1CC(C)CN(CCCNC(=O)c2ccc(N3CCCC3=O)cc2)C1 (centres undefined) | -17 | -6 | -5 | -15 | i | -1 | 1 | 0
COc1ccc(C(=O)N2CCCC2)cc1S(=O)(=O)N1CCOCC1 | -3 | 4 | 5 | . | i | 1 | 1 | 4
Cc1cccc(-n2ncc3c2CCCC3NC(=O)CN2CCOC2=O)c1C (centres undefined) | -16 | 2 | -2 | -3 | i | 3 | 2 | -6
COC(=O)[C@H]1C[C@@]2(O)CN(S(=O)(=O)c3ccc(C)cc3)C[C@@]2(OC(=O)NCc2ccco2)C[C@H]1C(=O)OC | -3 | . | -3 | . | . | 0 | 5 | .
CC(=O)OCC(=O)N1N=C(c2ccc3ccccc3c2)CC1c1ccccc1 (centres undefined) | . | 6 | 2 | 3 | i | 0 | 3 | -5
